# Screening data: PubChem, several laboratories
# UUG fidelity = modulators of start codon recognition fidelity in yeast; S. cerevisiae UUG-firefly luciferase reporter, luminescence/redox ratio; activity score, % at 18.7 µM; hit rate 0.13% among 350,000;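 active = replicate mean at a twofold rise or more, about +100% in these data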;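 note: firefly luciferase made from a UUG start codon reports start codon fidelity; reporter light over untreated wells divided by growth signal over untreated wells; some hits fall short of that in this replicate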
# Rce1 inh = yeast Ras-converting enzyme inhibition; calls only; AID 2563; yeast membranes, quenched prenylated peptide cleavage fluorescence; hit rate 0.27% among 290,000;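 active = fall in fluorescence gain of 50% or more versus controls, with final raw signal at or below 3038400; inconclusive = same 50% fall but final raw signal above 3038400; inactive = fall in fluorescence gain under 50%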;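 note: plate controls were neutral control wells for no effect and wells lacking membranes for full effect; tested at 10 µM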
# MT1-MMP act inh = MT1-MMP (human) activation inhibition | HT1080 RFP-PRO-GFP cells, GFP/RFP ratio fluorescence, overnight; percent of plate control window, DMSO zero | GFP/RFP ratio change, % at 20 µM | hit rate 0.061% among 360,000;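 active = GFP/RFP ratio change of at least 30% with cell ATP level not reduced by more than half and red fluorescence within 50% of control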; note: strong numbers were not always called active
#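 Test system: HT1080 RFP-PRO-GFP cells; Benchmarks: DMSO and RFP-L50D-GFP cell wells; Timing: cells overnight before dosing, compound overnight, 37 °C, 5% CO2; Compound: one 20 µM compound dose with 1% DMSO; Read-out: GFP/RFP fluorescence ratio.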
# PABP polyA inh = PABP-poly(A) binding inhibition; inhibition, % at 35 µM; hit rate 1% among 290,000; P11940; PABP-poly(A) RNA binding, fluorescence polarization;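 active = 50% or more with normal probe brightness, or confirmed in later tests; inconclusive = above 50% with abnormal brightness, or retests that disagree; inactive = below 50% or failed in later tests; about a fifth of its hits are not listed in these tables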;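 note: calls also rest on retests at 20 µM and on dose response follow-up; controls were probe without protein and protein plus probe with vehicle; some compounds called inactive have numbers as strong as hits; many hits fall short of the cut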
# Target sequence (P11940 whole entry, looked up): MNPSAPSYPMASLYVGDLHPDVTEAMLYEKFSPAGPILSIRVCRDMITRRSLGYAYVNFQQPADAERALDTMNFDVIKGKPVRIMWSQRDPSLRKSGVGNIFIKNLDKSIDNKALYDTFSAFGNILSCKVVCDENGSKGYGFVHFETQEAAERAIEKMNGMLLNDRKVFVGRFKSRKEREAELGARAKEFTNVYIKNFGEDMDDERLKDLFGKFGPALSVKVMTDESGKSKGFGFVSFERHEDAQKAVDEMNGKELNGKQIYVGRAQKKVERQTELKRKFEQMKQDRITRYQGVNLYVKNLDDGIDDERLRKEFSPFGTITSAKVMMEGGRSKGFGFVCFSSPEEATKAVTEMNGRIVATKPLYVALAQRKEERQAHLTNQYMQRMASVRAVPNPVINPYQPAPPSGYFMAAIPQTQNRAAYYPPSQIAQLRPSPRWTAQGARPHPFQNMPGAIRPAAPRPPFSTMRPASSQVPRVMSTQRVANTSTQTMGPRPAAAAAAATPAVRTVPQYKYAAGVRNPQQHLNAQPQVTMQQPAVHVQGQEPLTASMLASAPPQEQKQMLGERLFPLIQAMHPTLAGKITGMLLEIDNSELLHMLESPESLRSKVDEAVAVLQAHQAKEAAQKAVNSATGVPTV
# CSC inhib = blocks cancer stem cells; cancer stem cell-like cells viability, luminescence; inhibition, % at 7.5 µM; hit rate 1.1% among 300,000; AID 2717;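 active = mean at 75% or more and at least half the replicates too; inconclusive = mean and replicates disagree; tested in HMLE shEcad cells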;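 note: 0% = median of negative and 100% = median of positive control wells; the first replicate is given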
# Env fusion inh = HIV envelope-mediated fusion inhibition. inhibition, % at 12.3 µM. hit rate 1.1% among 360,000. AID 651610. HeLa-JRFL Env/CEM21 cell fusion, luciferase;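 active = mean replicate inhibition score of at least 50 and every replicate individually at or above 50; inconclusive = only one of the two criteria met; inactive = mean below 50 and not all replicates reaching 50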;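 note: 0% = plate neutral controls and 100% = maraviroc near 300 nM; one replicate is shown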
# eIF4H inh = inhibitors of RNA binding by human eIF4H; Q15056; inhibition, % at 35 µM; eIF4H fluorescence polarization binding assay; hit rate 0.94% among 290,000; AID 2012;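 active = 50% or more with normal probe brightness, or confirmed in later tests; inconclusive = above 50% with abnormal brightness, or retests that disagree; inactive = below 50% or failed in later tests; about a fifth of its hits are not listed in these tables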;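 note: calls also rest on retests at 20 µM and on dose response follow-up; 0% = protein and probe with vehicle and 100% = probe without protein; strong numbers were not always called active; many hits fall short of the cut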
# MT1-MMP act inh RFP = second read-out of MT1-MMP act inh, no call of its own (marks repeat the call); RFP signal change, %; measured here: RFP expression control read;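 0 = vehicle wells; hits needed this value within 50% of zero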
# Starred values were filed as active, the others as inactive; i = inactive; ? = inconclusive; . = no result given. A portion of the library; the hit share may differ from the screen's.
compound	UUG fidelity	Rce1 inh	MT1-MMP act inh	MT1-MMP act inh RFP	PABP polyA inh	CSC inhib	Env fusion inh	eIF4H inh
CCN(CC)S(=O)(=O)c1ccc(NC2CCCc3ccccc32)nc1 (configuration not stated)	-16	i	-7	-9	3	3	2	8
COc1ccc(C(=O)Nc2ccc(NC(=O)c3ccccn3)cn2)cc1	-14	i	-1	-5	6	.	-2	-1
COc1ccc(S(=O)(=O)N2CCCCCC2)cc1C(=O)N(C)Cc1ccco1	-7	i	1	-3	.	3	-21	.
O=C(O)/C=C\C(=O)Nc1ccccc1C(=O)NC1CCCCC1	.	i	-4	-4	7	-11	-20	6
CCCSc1nc2[nH]ncc2c(=O)[nH]1	.	i	6	7	13	-9	-14	-3
C#CCOc1ccc(C2C3=C(CCCC3=O)N(CC(=O)O)C3=C2C(=O)CCC3)cc1Br	2	i	-1	0	-6	-6	1	-3
Cc1ccc(N(C(=O)c2csnn2)C(C(=O)NC2CCCCC2)c2ccccn2)c(C)c1 (configuration not stated)	-4	i	-1	4	0	-10	2	-1
O=C1c2ccccc2C(Nc2ccc(S(=O)(=O)N3CCCCC3)cc2)N1c1ccccn1 (configuration not stated)	-18	i	-11	-7	-5	10	-14	-5
CN1CCN(c2ccc(CNC(=O)C3(C)Cc4c(-c5ccc6c(c5)OCO6)ccnc4O3)cc2)CC1 (configuration not stated)	-2	.	4	0	.	.	-8	.
CC(C)(C)OC(=O)[C@H](Cc1ccccc1)NC(=O)c1[nH]cnc1C(=O)Nc1ccccc1F	2	.	-6	-10	.	.	-3	.
COC(=O)c1ccc(C(=O)Nc2cc(Cl)ccc2Cl)cc1NC(=O)c1ccc(N(C)C)cc1	-31	i	0	0	-4	1	.	-3
O=C(Nc1ccc2c(c1)OCO2)N1CCCC1	-14	i	-4	0	0	9	0	-7
COCCCn1c(SC(C)C(=O)NC2CC2)nc2ccccc2c1=O (configuration not stated)	-12	i	6	2	.	-1	.	.
Cc1ccccc1OCC(O)CN1CCC(C)CC1 (configuration not stated)	.	i	3	4	-5	4	-5	-4
Cc1nnc(-c2ccc(Oc3ccc(Cl)cc3)c([N+](=O)[O-])c2)o1	.	i	0	-6	0	?	-6	-2
COC(=O)c1sccc1NC(=O)Cn1cnc2c1c(=O)n(C)c(=O)n2C	2	i	-3	4	0	-16	.	-8
CC1(c2ccccc2Cl)NC(=O)N(CC(=O)Nc2ccc(N3CCCCC3)cc2)C1=O (configuration not stated)	-19	i	3	2	.	-1	1	.
Nc1ccc(C(=O)Nc2nc3ccccc3s2)cc1	-35	i	2	-7	-3	15	-448	-4
c1cc(-c2cc3cc4c(cc3cn2)OCO4)cs1	10	.	7	3	.	-6	-269	.
Cc1ccccc1OCc1nc(-c2ccc(NC(=O)c3ccco3)cc2)no1	-26	i	5	-15	3	27	.	-4
COc1ccc(C(C)(NC(C)=O)c2nc(-c3cnc4ccccc4c3)cs2)cc1 (configuration not stated)	13	.	1	-4	.	.	-4	.
CC(C)c1ccc(CNc2ccc([N+](=O)[O-])cn2)cc1	.	i	-5	-1	-14	3	-8	1
CN(C(=O)Cn1cnc2sccc2c1=O)C1CCCCC1	-17	.	-2	1	.	2	.	.
Oc1ccc(C[C@H]2CNC(=S)N2CC2CCCN2C[C@H](Cc2ccccc2)N2C[C@H](Cc3ccc(O)cc3)N(CCc3ccccc3)C2=S)cc1 (some centres not stated)	-15	.	3	-10	.	.	-25	.
O=C(CNC1CCCCCC1)Nc1ccc(S(=O)(=O)NC2CC2)cc1	-20	i	-6	1	-8	-3	.	-10
CC1(Cc2ccccc2OC(F)(F)F)C(=O)Nc2ccc(-c3ccsc3)cc21 (configuration not stated)	-8	.	-7	-8	.	.	71*	.
C#CCOCCOCCOCCNc1nc(N2CCN(C(=O)[C@H](C)n3cc(CCC(=O)O)nn3)CC2)nc(N2CCN(C(=O)[C@H](Cc3ccc(O)cc3)n3cc(CCO)nn3)CC2)n1	-22	.	2	1	.	.	29	.
N#CCc1ccc(NC(=O)Nc2cccc3ccccc23)cc1	-15	i	-1	-3	46	0	.	0
O=C(COC(=O)c1ccccc1OCc1ccc(Cl)cc1)NC1CC1	-1	i	4	2	3	-10	-19	-3
[O-][n+]1c2c(c3c4non(O)c4ccc31)CCCC2	.	i	11	-14	5	.	.	4
Cc1ccn(CCC(=O)Nc2ccc(-c3ccno3)cc2)n1	-21	i	3	4	-2	-6	-8	-8
O=[N+]([O-])c1c(Nc2ccc(Br)cc2)ccc2nonc12	-17	i	5	1	-8	11	-2	-2
CCCCCc1ccc(-c2ccc(=O)[nH]n2)cc1	-26	i	1	1	4	-2	50	-2
Cc1ccc(NC(=O)Cn2cccc2C2=NC(c3ccccc3)CO2)c(C)c1 (configuration not stated)	-22	i	-3	-11	30	-7	17	-7
Cc1cc(C)c[n+](-c2[nH]c(=O)sc2/C=N/NC([S-])=Nc2ccccc2)c1	-21	i	-84	7	-7	3	.	?
Cc1cccc(N(CC(=O)NCCC2=CCCCC2)S(C)(=O)=O)c1C	3	.	7	2	0	-16	10	6
Fc1cccc(Cl)c1Cn1nnc2c(N3CCC4(CC3)OCCO4)ncnc21	6	i	-7	-6	-4	-1	15	7
O=C(CCCCCn1c(=S)[nH]c2cc3c(cc2c1=O)OCO3)N1CCN(Cc2ccccc2)CC1	.	i	-4	-4	-2	26	-4	4
O=C(Nc1cccc([N+](=O)[O-])c1)Nc1cccc([N+](=O)[O-])c1	.	i	-2	-15	-3	.	12	-3
O=C(NCc1ccccc1)c1ccc2c(=O)n3c(nc2c1)CCCCC3	10	i	2	2	-3	13	2	-7
CCC(C)[C@H](NC(=O)Nc1ccc(C(C)=O)cc1)C(=O)OC (some centres not stated)	-8	i	6	9	-9	-15	.	-2
Cc1ccc(S(=O)(=O)N(C)C)cc1NC(=O)C(C)N(C)CCOc1ccc(Cl)cc1 (configuration not stated)	-10	i	-3	-17	11	-19	69*	1
COc1ccc(-c2oc3ccccc3c(=O)c2OCC(=O)O)cc1	.	i	0	-10	-6	.	0	-6
CCOc1ccc(C(=O)Nc2nnc(S(=O)(=O)N3CCCCC3)s2)cc1	-16	i	-4	-4	-7	-9	-5	7
Cc1ccc(-n2c(C)c([N+](=O)[O-])c3ccc(O)c(CN(C)C)c32)cc1	-16	i	-17	-19	-9	-27	62*	-2
CC1CCCN(C(=S)Nc2ccc3nc4n(c(=O)c3c2)CCCCC4)C1 (configuration not stated)	.	i	0	-2	-9	-4	13	-14
CCOC(=O)C1=C(CN2CCCCCC2)NC(=O)NC1c1cccc([N+](=O)[O-])c1 (configuration not stated)	.	i	-3	-4	3	6	-1	3
CCCCc1cc(=O)oc2cc(OC(C)C(=O)NCCN3CCOCC3)c(Cl)cc12 (configuration not stated)	-9	i	1	5	-3	12	4	-9
O=C(O)c1cccc(NC(=O)c2cc(-c3cccc(Cl)c3)nc3ccccc23)c1	.	i	1	-2	-2	11	-2	4
C=CCN1C(=O)/C(=C/c2cccs2)S/C1=N\S(=O)(=O)c1ccc(F)cc1	-22	i	-2	-6	-12	-31	.	1
COc1ccc(OCC#CCn2ccnc2)cc1	.	i	3	-2	6	-42	17	-2
COc1ccc(CCN(C)C(=O)CNC(=O)c2ccccc2F)cc1OC	.	i	1	4	-2	-15	5	0
CCOC(=O)N1CCN(C(=O)CSc2ncnc3sccc23)CC1	-13	.	6	2	.	.	18	.
CCN(CC)C(=O)CSc1nc2sc3c(c2c(=O)n1-c1ccc(C)cc1)CC(C)(C)SC3	-15	i	-9	-2	3	4	-38	4
Cc1cc(C)nc(NC(=NCCc2c[nH]c3ccccc23)NC(=O)c2ccco2)n1	.	i	2	-6	-9	16	.	6
COc1ccc(COC(=O)C2CCN(S(=O)(=O)c3ccc(C)cc3)CC2)cc1	16	i	-3	0	.	-16	-22	.

# Additional structures.
compound	UUG fidelity	Rce1 inh	MT1-MMP act inh	MT1-MMP act inh RFP	PABP polyA inh	CSC inhib	Env fusion inh	eIF4H inh
COc1ccc2c(c1)C(C)=CC(C)(C)N2C(=O)CSc1nnc(-c2ccc(C)cc2)o1	-8	i	-6	-6	1	-3	40	9
Cc1cc(C)nc(Sc2nc(Nc3ccccc3)nc(Sc3nc(C)cc(C)n3)n2)n1	9	i	2	-1	-3	-14	7	-11
CCN(CC)S(=O)(=O)c1ccc(NS(=O)(=O)c2cccs2)cc1	.	i	-2	2	-3	-14	-2	1
COc1ccc(NC(=O)C[C@H]2C(=O)N(c3ccc(Br)cc3)C[C@@H]2CSC)cc1	-3	.	9	-1	.	.	12	.
NS(=O)(=O)c1ccc(CCNS(=O)(=O)c2cccc3nsnc23)cc1	-12	i	2	3	-2	.	14	3
N#Cc1ccc(CSc2nnc(-c3cccnc3)n2-c2ccccc2)cc1	.	i	2	-1	10	3	.	6
Fc1ccc2nc3c(nc2c1)CCCC3	-6	i	0	3	-2	-3	-7	2
N#Cc1ccsc1NC(=O)c1ccccn1	-17	.	1	3	11	-9	-65	4
O=C1C2C3c4ccccc4C(c4ccccc43)[C@@H]2C(=O)N1c1cccnc1 (some centres not stated)	.	i	0	1	10	-11	11	-3
COc1ccc(CNC(=O)COc2ccc(S(=O)(=O)N3CCOCC3)cc2)cc1	-8	i	-1	0	.	-4	20	.
Cc1ccc(NC(=O)CSc2nnc(Cn3c(=O)sc4ccccc43)n2C)cc1Cl	-19	i	3	6	-2	-11	-6	-4
O=C(c1ccccc1)N1CCN2C(=O)c3ccccc3C12c1ccc(Cl)cc1 (configuration not stated)	.	i	-6	-3	1	.	.	-11
CSc1nc2c(cnn2-c2ccccc2)c(=O)n1N	.	i	1	6	-3	-5	-6	-1
Cc1cc(NS(C)(=O)=O)c(=O)n(Cc2cccc(C(F)(F)F)c2)c1	-8	.	2	5	.	.	10	.
CN(C)S(=O)(=O)c1cccc(COC(=O)Cc2c(F)cccc2Cl)c1	1	i	-1	-6	-2	5	-13	-19
O=[N+]([O-])c1ccc(-c2cn(-c3ccc(Cl)cc3)c(=S)[nH]2)cc1	-11	i	15	1	5	0	8	1
O=c1sc2ccccc2c(N2CCCCC2)c1[N+](=O)[O-]	-2	i	0	3	1	-4	5	2
COC(=O)c1c(NC(=O)C(=O)N2CCCC2)sc2c1CC(C)(C)OC2	7	i	-2	-1	7	-10	13	-12
N#Cc1nc(-c2cccc3ccccc23)oc1N1CCCCC1	-5	i	-2	5	19	-1	.	41
CC(=O)c1ccc(-c2c(C)cc3oc(=O)cc(-c4ccccc4)c3c2C)cc1	-3	.	2	-6	.	.	-24	.
Cn1c(=O)c2c(ncn2CC(=O)OCCCC(=O)c2ccc(Br)cc2)n(C)c1=O	.	.	3	-25	.	-9	10	.
COCCCNC(=O)CCn1nc(-c2ccc(Cl)cc2)ccc1=O	2	i	-1	2	7	-8	-4	-8
COc1ccc(CCNc2nc(-c3ccncc3)cs2)cc1OC	.	i	2	-16	6	-10	15	10
O=C1S/C(=C\c2ccccc2)C(=O)N1CC(O)Cn1c2ccccc2c2ccccc21 (configuration not stated)	-32	i	-2	3	11	37	17	0
